Assay outcomes: PubChem, ICCB-Longwood Screening Facility, Harvard Medical School
GIV-Gai inh: GIV-Galpha-i interaction inhibition | P08753 | Galpha-i3/FITC-GIV peptide fluorescence polarization, 90 min; active compounds read low; scaled: aluminum fluoride 0%, vehicle 100% | percent of control (FP), % (test concentration not listed) | actives 0.42% (n = 210,000);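 active means replicate mean at 85% of control or lower, very high polarization wells dropped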;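 further: lower values mean more displacement of the GIV peptide from Galpha-i3; wells of about 15 µL received 100 nL stock; the first replicate is given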
Target sequence (P08753 whole entry, looked up): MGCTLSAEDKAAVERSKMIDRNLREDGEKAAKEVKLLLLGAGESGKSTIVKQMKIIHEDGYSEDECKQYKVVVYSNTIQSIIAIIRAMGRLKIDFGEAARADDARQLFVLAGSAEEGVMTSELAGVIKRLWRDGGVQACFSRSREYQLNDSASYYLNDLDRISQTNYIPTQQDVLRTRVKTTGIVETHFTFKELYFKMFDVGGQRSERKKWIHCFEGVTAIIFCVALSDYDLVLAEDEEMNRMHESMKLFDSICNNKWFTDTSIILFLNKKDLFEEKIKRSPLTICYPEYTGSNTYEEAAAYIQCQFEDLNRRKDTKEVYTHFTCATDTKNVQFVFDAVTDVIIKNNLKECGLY
* marks the source's active call; other numbers are inactive results; & = joins results of further samples. These rows are one share of the data, so the mix of outcomes need not match the whole.

SMILES	GIV-Gai inh
COc1ccc(CNC(=O)c2ccc(N3CC4CC(C3)c3cccc(=O)n3C4)c(NC(=O)c3ccccc3Cl)c2)cc1 (configuration not stated)	113
O=C(NC1CC1)C1CCCN(C(=O)C2CC2)C1 (configuration not stated)	100
Cc1cccc(N2CCN(c3cccc(C)c3)C2c2ccc([N+](=O)[O-])cc2)c1	113
COc1ccc(C2CC(c3cccs3)=NN2C(=O)CSc2nnc(CNC(=O)c3cccc(OC)c3)n2C)cc1 (configuration not stated)	110
CCN(CC)S(=O)(=O)c1cc(-c2nc(C(C)C)cs2)sc1C	106
CCOc1ccc(NC(=O)Nc2ccc(CCc3nc4ccccc4[nH]3)cc2)cc1	102
Cc1c(CN2CCCC(c3nncn3-c3ccccc3)C2)cnn1C (configuration not stated)	106
O=S(=O)(c1cccn2c(SCc3ccc(F)cc3Cl)nnc12)N1CCCCC1	99
Cc1cccc(-n2c(CNC(=O)c3ccc(S(=O)(=O)N(C)C)cc3)nnc2SCC(=O)Nc2nccs2)c1	108
COC(=O)C1=CN(Cc2ccc(F)cc2)C=C(C(=O)OC)C1c1cc(Br)ccc1OC	107
O=C(C1=C(Nc2ccc3c(c2)OCO3)c2ccccc2S1(=O)=O)N1CCOCC1	103
CCc1cc(-c2csc(S(=O)(=O)NCCCN3CCN(c4ccccc4)CC3)c2)on1	104
Cc1cn2c(=O)cc(COc3ccc(Cl)cc3NC(=O)C3CCCCC3)nc2s1	106
O=C(c1cccn2c(-c3ccc(F)cc3)nnc12)N1CCC(O)(c2ccc(Cl)cc2)CC1	100
O=C(Nc1ccc(F)cc1F)N1CCC(n2cnc3ccc(Cl)cc3c2=O)CC1	103
CN1C(=O)C(C)(C)c2cc(S(=O)(=O)N3CCC(CCN4CCOCC4)CC3)ccc21	110
COc1ccccc1Oc1cc(-c2cccc(C(=O)Nc3cccc(C)c3)c2)ncn1	112
COc1ccc(C)cc1-n1cnc2cc(C(=O)NCc3ccc(F)cc3)ccc21	102
COc1ccc([N+](=O)[O-])cc1-c1ccc(/C=c2\sc3nc4c(C)cc(C)cc4n3c2=O)o1	129
CCCCc1nc(SCC(=O)Nc2cc(C)on2)n[nH]1	109
CC(C)c1cnc2c(c1SCC(=O)N(C(C)C)C(C)C)c(=O)n(C)c(=O)n2C	104
Cc1ccc(N2C(=O)C3C4c5ccccc5C(C)(c5ccccc54)C3C2=O)c([N+](=O)[O-])c1 (configuration not stated)	108
CC(C)S(=O)(=O)N1CCCN(C(=O)C2CC2)CC1	103
Cc1noc(C)c1S(=O)(=O)N1CCCC(c2nc(CNC(=O)C(C)C)cs2)C1 (configuration not stated)	96
CCn1nc(C)c2ccnc(N3CCC(C(=O)NCCN4CCC(N5CCCCC5)CC4)CC3)c21	101

6 entries already listed, arranged by the number in GIV-Gai inh, highest first:
| Molecule | GIV-Gai inh |
| --- | --- |
| COc1ccc([N+](=O)[O-])cc1-c1ccc(/C=c2\sc3nc4c(C)cc(C)cc4n3c2=O)o1 | 129 |
| CCCCc1nc(SCC(=O)Nc2cc(C)on2)n[nH]1 | 109 |
| CCN(CC)S(=O)(=O)c1cc(-c2nc(C(C)C)cs2)sc1C | 106 |
| CCc1cc(-c2csc(S(=O)(=O)NCCCN3CCN(c4ccccc4)CC3)c2)on1 | 104 |
| COc1ccc(C)cc1-n1cnc2cc(C(=O)NCc3ccc(F)cc3)ccc21 | 102 |
| O=C(c1cccn2c(-c3ccc(F)cc3)nnc12)N1CCC(O)(c2ccc(Cl)cc2)CC1 | 100 |

Carrying on:
SMILES	GIV-Gai inh
CCOc1ccc(-n2nc(C(=O)NCC3CCCN3CC)c3ccccc3c2=O)cc1 (configuration not stated)	100
CC1CCCN(c2cc(CNS(C)(=O)=O)ccn2)C1 (configuration not stated)	98
Cn1nc(CO)c2c1CCN(Cc1ccc(Br)o1)C2	106
N#CC1=CN(c2cc(F)ccc2F)c2cccc(F)c2S1(=O)=O	98
O=C(NC1CCCC1)N1CCOc2ccc(COCc3ccc(Cl)cc3)cc2C1	100
CNc1nc(OC(C(F)(F)F)C(F)(F)F)nc(N2CCC[C@H]2C(=O)O)n1	110
CCc1cc(C2CCCN2Cc2ccc(O)cc2)on1 (configuration not stated)	99
CCOC(=O)C1=C(C(=O)OCC)SC(=C2C(=S)C(C)(C)N(C(=O)c3ccc(F)cc3)c3ccc(C)cc32)S1	113
O=C(NCCN1CCOCC1)c1csc(Nc2ccccc2)n1	101
Cc1sc(C)c(S(=O)(=O)NCc2ccc(F)cc2)c1-c1cc(C(F)(F)F)on1	104
CN(CC#N)C(=O)c1ccc2c(c1)CCN2C(=O)C1CC1	103
Cc1ccc(C(=O)Nc2ccc(-c3noc(-c4ccc(Br)o4)n3)cc2)cc1[N+](=O)[O-]	104
O=C(C1CCN(c2cc(N3CCCCC3)ncn2)CC1)N1CCC2(CC1)OCCO2	93
CC1CCN(c2nnc(-c3ccccc3)c3ccccc23)CC1	103
Cc1ccc(-c2cncc(C(=O)NCCC3=CCCCC3)c2)cc1	102
COc1ccc(-c2cc3cc(OC)c(OC)cc3c(Cc3cccc4ccccc34)n2)cc1	112
C=CCc1c(C)nc(Sc2c(-c3ccccc3)c3ccc(Cl)cc3[nH]c2=O)[nH]c1=O	102
CCN(Cc1ccccc1)S(=O)(=O)c1ccc(F)c(C(=O)Nc2ccc(Br)cc2F)c1	111
COc1cccc(Cn2nnc3cc(C(=O)NCc4ccccc4Cl)ccc32)c1	106
Cn1c(SCC(=O)N2CCCc3ccccc32)nc2cc(-c3ccccc3)sc2c1=O	103
O=C(CSC1=NCCS1)N1CCCc2ccccc21	102
CC1CCN(CCCn2c(SCC(=O)NC3CCCC3)nc3ccccc3c2=O)CC1	106
CCNc1cc(C)nc(N2CCN(C(=O)c3ccccc3)CC2)n1	102
CCOC(=O)C1CCC(CNC(=O)N2CCC3(CC2)Nc2cc(OC)ccc2-n2cccc23)CC1 (configuration not stated)	113
COc1ccc(/C=C2\SC(=S)N(CCC(=O)N3CCN(c4ccccc4)CC3)C2=O)cc1OC	121

A few values from the results shown.
`Cc1sc(C)c(S(=O)(=O)NCc2ccc(F)cc2)c1-c1cc(C(F)(F)F)on1` | GIV-Gai inh: 104
`CCc1cc(C2CCCN2Cc2ccc(O)cc2)on1` (configuration not stated) | GIV-Gai inh: 99
`COc1cccc(Cn2nnc3cc(C(=O)NCc4ccccc4Cl)ccc32)c1` | GIV-Gai inh: 106
`CCOC(=O)C1=C(C(=O)OCC)SC(=C2C(=S)C(C)(C)N(C(=O)c3ccc(F)cc3)c3ccc(C)cc32)S1` | GIV-Gai inh: 113
`COc1ccc(-c2cc3cc(OC)c(OC)cc3c(Cc3cccc4ccccc34)n2)cc1` | GIV-Gai inh: 112
`COc1ccc(/C=C2\SC(=S)N(CCC(=O)N3CCN(c4ccccc4)CC3)C2=O)cc1OC` | GIV-Gai inh: 121
`CC1CCCN(c2cc(CNS(C)(=O)=O)ccn2)C1` (configuration not stated) | GIV-Gai inh: 98

Following part.
SMILES	GIV-Gai inh
COc1ccc(NC(=O)CSc2nnc(-c3cc4ccccc4o3)n2-c2ccccc2)cc1	105
CCc1ccc(N=CC23c4ccccc4C(c4ccccc42)C2C(=O)N(c4ccccc4[N+](=O)[O-])C(=O)C23)cc1 (configuration not stated)	110
O=C1/C(=C/c2ccc(-c3cc(Cl)ccc3Cl)o2)C=C(c2ccccc2)N1c1ccc(O)cc1	157
O=C(Nc1ccc2c(c1)OCO2)c1nnc(C2CCN(C(=O)C3CCCCC3)CC2)s1	102
O=c1c2cn[nH]c2nc(SCc2nc(-c3ccc(Cl)c(F)c3)no2)n1-c1ccccc1	98
Cc1ccc(-n2sc(=NC(=Nc3ccccc3)c3ccccc3)nc2-c2ccccc2)cc1	106
CSCCC1(C(=O)O)NC(c2ccccc2O)C2C(=O)N(c3ccc(Br)cc3)C(=O)C21 (configuration not stated)	114
Cc1ccc(NC(=O)CSC2=C(C#N)C(c3ccc(C(C)C)cc3)CC(=O)N2)cc1C (configuration not stated)	102
O=c1c2cnc3c(Cl)cccc3c2nc2sccn12	123
Cc1sc(-c2nnc(C3CC3)o2)cc1NC(=O)c1n[nH]c2c1CCCC2	103
O=C1/C(=C/c2c(NCc3ccco3)nc3ccccn3c2=O)SC(=S)N1C1CCCCC1	109
COC(=O)C1=C(C(=O)OC)SC(=C2C(=S)C(C)(C)N(C(=O)c3ccccc3-c3ccccc3)c3cc(C)ccc32)S1	110
CCN(C(=O)CN1C=NS(=O)(=O)c2ccccc21)c1cccc(C)c1	98
CC(=O)Oc1ccc(C2C(C(=O)OC3CCCC3)=C(C)NC3=C2C(=O)CC(c2cccs2)C3)cc1 (configuration not stated)	108
C=CCn1c2ccccc2c2nnc(SCC(=O)Nc3nc4ccccc4s3)nc21	108
COc1cc(-c2nc(Cc3c(F)cccc3Cl)no2)cc(OC)c1OC	113
COc1ccc(CSc2nccc3c2ccn3CC(=O)N2CCN(c3ccccc3)CC2)cc1	105
COc1ccc(C2CC(=O)Nc3c2c(C)nn3-c2ccc3nnc(C)n3n2)cc1OC (configuration not stated)	99
CCOc1ccc(NC(=O)NCc2nnnn2-c2ccc(Cl)cc2)cc1	101
O=C(Nc1ccc(F)cc1)c1nnc(C2CCCN(C(=O)c3cccc(Cl)c3)C2)s1 (configuration not stated)	106
O=C(Nc1ccccc1F)C1Oc2ccccc2NC1=O (configuration not stated)	97
CCOC(=O)c1[nH]c(C)c(CN(Cc2ccc(C)cc2)C(=O)c2ccccc2F)c1C	100
COP(=O)(OC)C(Nc1cccc2ccccc12)c1ccc(Cl)cc1 (configuration not stated)	122
COc1ccccc1C1NC(=S)NC(C)=C1C(=O)Nc1ccccc1C (configuration not stated)	107
CCOc1ccc(CC(=O)Nc2c(C)nc3scc(CC)n3c2=O)cc1OCC	104
SMILES	GIV-Gai inh
COc1ccc(C2C3=C(CCCC3=O)N(c3ccccc3)C(=N)/C2=C(/O)c2ccc(C)cc2)cc1 (configuration not stated)	105
O=C1c2ccccc2S(=O)(=O)N1CC(O)COc1ccc(Br)cc1 (configuration not stated)	96
O=C(Nc1cccc(-c2cn3cccnc3n2)c1)c1ccccc1F	140
CCOC(=O)c1sc2nc(SCc3cc(=O)n4cc(Cl)ccc4n3)n(CC3CCCO3)c(=O)c2c1C (configuration not stated)	103
COc1cccc(C2=NN3C(C2)c2cc(Cl)ccc2OC3c2ccc(F)c(F)c2)c1 (configuration not stated)	108
Cc1ccc(CNC(=O)Cn2cnc3c(-c4ccccc4)csc3c2=O)cc1	108
CCCCCCc1cc2c3c(c(=O)oc2cc1OCC(=O)C(C)(C)C)CCCC3	112
O=C(NC1CCCCC1)C1(c2ccccc2)CCOCC1	114
Cc1ccc(Cc2nc(CCNS(=O)(=O)c3cc(C)cc(C)c3)n[nH]2)cc1	113
N#Cc1c(-c2ccc(Br)cc2)c(C#N)c2nc3ccccc3n2c1N	105
CCOc1ccc(NC(=O)Nc2cc(F)c3[nH]c(=O)ccc3c2)cc1	108
C=CCn1c(=O)c(=O)n(Cc2ccc(C(=O)NC3CCS(=O)(=O)C3)cc2)c2ccccc21 (configuration not stated)	110
COc1ccc(NC(=O)c2ccc(Oc3nccnc3Oc3ccc(C)cc3)cc2)c(OC)c1	103
CCC(C)(C)NS(=O)(=O)c1cc(-c2nc(C)c(C)s2)sc1C	100
COc1ccc(OC)c(NC(=O)CSc2nc(NCc3ccccc3)c3ccccc3n2)c1	111&109
CCC(C)(C)NC(=O)c1cccc(-c2ccc(S(=O)(=O)N3CCCC3)cc2)c1	99
COc1ccc([N+](=O)[O-])cc1C1N(c2ccc(C)cc2)CCN1c1ccc(C)cc1	113
CC(C)NC(=O)Cn1cnc2c(sc3ncccc32)c1=O	100
O=C(c1cccs1)N1CCc2c([nH]c3ccccc23)C1c1ccc2c(c1)OCO2 (configuration not stated)	109
CCC(=O)NC1CCN(C(=O)C2CCC2)C1 (configuration not stated)	98
COc1ccc(N2CCN(S(=O)(=O)c3cc(-c4nnc(C5CCC5)o4)co3)CC2)cc1	99
Cc1cccc(-n2nc3c(c2NC(=O)c2ccc(S(=O)(=O)N4CCOCC4)cc2)CS(=O)(=O)C3)c1C	113
COc1ccc(OC)c(CNC(=O)c2ccc(-c3cnc(N4CCCCC4)nc3)cc2)c1	103
N#Cc1c(-c2ccccc2)cc(-c2ccccc2)nc1SCC(=O)N1CCOCC1	106
O=C(NCCCN1CCOCC1)c1cc(S(=O)(=O)N2CCOCC2)ccc1Sc1ccc(Br)cc1	104
SMILES	GIV-Gai inh
CCOc1ccc(Nc2[nH]c(=O)sc2C2=c3cc(Br)ccc3=NC2=O)cc1	103
CCOC(=O)Nc1ccc2c(c1)Nc1ccccc1CC2	101
CCOc1ccc(CN2C(=O)c3ccccc3CC2(C)C(=O)NCc2ccccc2OC)cc1 (configuration not stated)	102
N#CC1=C(N)Oc2n[nH]c(-c3ccccn3)c2C12C(=O)Nc1ccccc12 (configuration not stated)	102
COC(=O)C1=C(C(=O)OC)SC2(S1)C(C(=O)OC)=C(C(=O)OC)SC1=C2c2cc(C)ccc2NC1(C)C	104
CCNc1nc(NC(C)C)nc(Oc2ccc(OCC)nn2)n1	109
COc1ccc(S(=O)(=O)N2CCC3(C2)C(=O)N(C)c2ccccc23)cc1OC (configuration not stated)	114
Cc1nnc2ccc(NS(=O)(=O)c3ccc(Br)s3)nn12	108
CCn1nnc2c(NCc3ccc4c(c3)OCO4)ncnc21	101
CCOc1ccc(N2C(=O)/C(=C\c3cc(Br)c(O)c(OC)c3)S(=O)(=O)C2c2cccc([N+](=O)[O-])c2)cc1 (configuration not stated)	108
O=c1n(Cc2cccc(F)c2)nc2c(S(=O)(=O)N3CCCCCC3)cccn12	104
c1ccc(-c2oc3ncn4nc(-c5ccncc5)nc4c3c2-c2ccccc2)cc1	111
Cc1ccccc1S(=O)(=O)N1CCC2(CC1)NCCN=C2NCc1ccccc1	102
O=C(c1ccc2ccnc(N3CCN(c4ccc(Cl)cc4)CC3)c2c1)N1CCCC1	101
Cc1ccc(S(=O)(=O)CCC(=O)N2CCCC2c2nc(-c3ccc(Cl)cc3)no2)cc1 (configuration not stated)	101
O=C(CCC(=O)N1Cc2cccn2-c2ccccc21)N1CCN(c2ccc(Cl)cc2)CC1	109
